Screens as filed in PubChem.
Mtb H37Rv = Confirmatory growth inhibition assay against Mycobacterium tuberculosis H37Rv, potency (AID 1949); one-dose inhibition, % at 10 µg/mL; IC50 in µg/mL for titrated hits; most inactive calls were filed without a number and no value below 0 was filed; 100,000 tested, 1.6% active;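 active = confirmed in a dose series; inconclusive = about 50% or more but not retested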;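 note: bacteria grown 7 days with compound before Alamar blue readout; 0% = untreated bacteria and 100% = reference antibiotic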
* = called active by the depositor; i = inactive; ? = inconclusive. An excerpt; the hit share may differ from the screen's.

SMILES | Mtb H37Rv
COC(=O)c1cc(Cl)c(NC(=O)c2ccco2)cc1OC | i
Cc1cc(OCC(=O)Nc2ccccc2Cl)cc(C)c1Br | 3%
COc1ccc(-c2c(C)oc3cc(OCC(=O)OC(C)(C)C)ccc3c2=O)cc1 | ?
COc1ccc(Cl)cc1C(=O)NNC(=S)Nc1ccc(C)cc1 | i
COc1cc(NC(=S)Nc2ccc3c(C)cc(=O)oc3c2)c(OC)cc1Cl | i
O=C(O)CCSc1n[nH]c2nc3ccccc3n12 | i
Cc1cc([N+](=O)[O-])ccc1NC(=O)C(C)(C)Oc1ccc(Cl)cc1 | i
COc1cccc(CNC(=O)Cc2c(C)c3ccc(O)cc3oc2=O)c1 | i
Cc1c(Cl)c([N+](=O)[O-])nn1CC(=O)Nc1ccccc1C(F)(F)F | i
CCOC(=O)c1cc2ccc(OC(=O)c3ccco3)cc2oc1=O | i
COc1ccc(S(=O)(=O)N2CCN(C(=S)Nc3cccc(C(F)(F)F)c3)CC2)cc1 | i
CCC(C)c1ccc(OCC(=O)Nc2cc(C)ccc2O)cc1 (centres undefined) | 18%
CCOc1cc(S(=O)(=O)N2CCCC2)c(C)cc1C | i
Cc1nc(N)sc1-c1csc(Nc2ccccn2)n1 | i
Cc1ccc(NC(=O)CC2COc3ccccc3O2)cc1C (centres undefined) | 44%
Cc1ccc(-c2nc3ccccc3o2)cc1NC(=S)NC(=O)c1ccccc1Cl | 2%
COc1ccc(/C=C2/SC(=O)N(CC(=O)Nc3nccs3)C2=O)cc1 | i
Cc1ccc(NC(=O)NCCCc2ccccc2)cc1 | 2%
O=C(Nc1cccc(NC(=O)C2CCCC2)c1)C1CCCC1 | i
CC(=O)Nc1ccc(NC(=O)c2ccccc2C(F)(F)F)cc1 | 0%
COC(=O)C(CCCCOc1ccc(Cl)cc1)C(=O)OC | 34%
Cc1cc(I)ccc1NC(=O)C1CCCCC1 | i
COc1ccc(C(CC(=O)c2ccccc2)CC(=O)c2ccccc2)cc1OC | i
O=C1NCCc2c1[nH]c1ccc(OCc3ccccc3)cc21 | 7%
O=C(Oc1ccc2c3c(c(=O)oc2c1)CCC3)c1cccc(Cl)c1 | i
CCOc1cccc(OCCOc2c(Cl)cccc2Cl)c1 | 1%
O=S(=O)(Nc1ccccc1O)c1ccc2oc3ccc(S(=O)(=O)Nc4ccccc4O)cc3c2c1 | i
Cc1c(C(Nc2ccccn2)c2ccc(Cl)cc2)c(=O)n(-c2ccccc2)n1C (centres undefined) | i
CC1CCCCN1Cc1c(O)ccc2c(=O)c(-c3ccc(Cl)cc3Cl)coc12 (centres undefined) | i
COc1cc(C2NC(=O)NC(C)=C2C(=O)Nc2cccc(C)c2)ccc1O (centres undefined) | i
O=C(Cn1nc(-c2ccc(Cl)cc2)c2ccccc2c1=O)Nc1cccc(Br)c1 | i
CCN(CC)C(=O)c1sc(NC(=S)Nc2ccc3c(c2)OCCO3)c(C(=O)OC)c1C | i
CC(=O)NC1CCCCC1Sc1ccccc1 (centres undefined) | i
O=c1nc(/C=C/c2cccc(O)c2)cc(C(F)(F)F)[nH]1 | 19%
COc1ccc(NC(=O)N2CCN(C/C=C/c3ccccc3)CC2)cc1OC | i
COc1ccc(C)cc1S(=O)(=O)N1CCCCC1 | 3%
COC(=O)C1=C(C)NC(C)=C(C(=O)OC)C1c1ccco1 | 6%
CCOCCNC(=O)c1ccc2c3c(cccc13)CC2 | i
Cc1cc(NC(=O)c2sc3ccccc3c2Cl)ccc1NC(=O)c1cc2ccccc2o1 | i
COc1cc(NC(=S)N2CCC(C(O)(c3ccccc3)c3ccccc3)CC2)c(OC)cc1Cl | i
COc1ccc(CCNC(=S)NCc2ccc(Cl)c(Cl)c2)cc1OC | 1%
CCC(Oc1ccccc1)C(=O)Nc1ccsc1C(=O)OC (centres undefined) | i
COc1ccc(C)cc1N(CC(=O)NC1CC1)S(C)(=O)=O | 1%
COc1ccccc1C(=O)n1nc(-c2ccccc2)nc1N | i
O=[N+]([O-])/C=C/c1cccn1-c1ccc(F)cc1 | 7.6µg/mL*
COCCCNC(=O)C(=O)Nc1ccccc1F | i
COCCCNC(=O)c1cc(-c2ccc(OC)cc2OC)nc2ccccc12 | i
O=S(=O)(Nc1ccc2c(c1)OCO2)c1ccccc1 | i
COc1cc(NC(=S)NCc2ccc(F)cc2)cc(OC)c1 | 3%
COc1ccc(Cc2nc(-c3ccccn3)no2)cc1 | i
COc1ccc(COc2cc3oc(=O)cc(C)c3cc2Cl)cc1 | i
CCOC(=O)c1ccc(NC(=O)c2nn(C)cc2Br)cc1 | i
CCCCC(=O)Nc1ccc(NCc2cc(Cl)cc(Cl)c2OC)cc1OC | 2%
O=C(OCc1ccc([N+](=O)[O-])cc1)c1cccc2ccccc12 | i
CCCCOc1ccc(Cl)cc1C=O | i
Nc1nonc1-c1nnnn1CC(=O)Nc1cccc2ccccc12 | i
Cc1ccc([N+](=O)[O-])cc1NC(=O)CCC1CCCCC1 | 3%
CCOc1ccc(Nc2nc(N)nc(CN3CCCCCC3)n2)cc1 | i
Cc1cccc(NC(=O)c2ccc(S(=O)(=O)N(C)C)cc2)n1 | i
Cc1cc(=O)cc(C)n1-c1ccccc1N1CCOCC1 | i

Next structures.
SMILES | Mtb H37Rv
Nc1nc(-c2ccc(Cl)cc2)nc2c1c(=O)oc1ccccc12 | i
CCc1ccc(-c2csc3ncn(Cc4ccc(C)cc4)c(=O)c23)cc1 | 31%
COC(=O)c1ccc(CSc2nc(-c3ccco3)cc(C(F)(F)F)n2)o1 | i
CCN(CC)C(=O)CSc1nc2sc(C)c(C)c2c(=O)[nH]1 | i
Cc1ccc(S(=O)(=O)N(C)CC(=O)Nc2cccc3ccccc23)cc1 | i
Cc1onc(-c2ccccc2Cl)c1C(=O)NC(=S)Nc1c(C)n(C)n(-c2ccccc2)c1=O | i
COc1ccc(/C=C/c2nc(-c3ccncc3)no2)cc1OC | 1%
O=S(=O)(NCCCCCCNS(=O)(=O)c1cccs1)c1cccs1 | i
Cc1ccc(SCCNC(=S)NC2CC2)cc1 | 4%
Cc1cc(Cl)ccc1N(CC(=O)Nc1cccc(F)c1)S(C)(=O)=O | i
COCCNC(=S)Nc1ccc(C)c(Cl)c1 | i
COC(=O)c1ccc(NC(=O)CSc2cc(C)c3ccccc3n2)cc1 | 4%
O=C(O)c1ccc(COc2ccc(Br)cc2)cc1 | i
CCc1c(C)sc(NC(=S)Nc2ccc3c(c2)OCCO3)c1C(=O)OC | i
Cc1cc(C(F)F)n2ncc(C(=O)Nc3cnn(Cc4ccc(Cl)cc4Cl)c3)c2n1 | 1%
Cc1ccc(C(=O)CC2(O)C(=O)Nc3ccc(Br)cc32)o1 (centres undefined) | i
COc1ccc(CNC2C3CC4CC(C3)CC2C4)cc1 (centres undefined) | i
CCc1c(C)sc(NC(=S)Nc2cc(OC)c(Cl)cc2OC)c1C(=O)OC | i
COC(=O)c1ccc(NC(=O)COc2ccc(S(=O)(=O)NCc3ccccc3)cc2Cl)cc1 | i
CCC(=O)Nc1cc(-c2cc3ccccc3oc2=O)ccc1OC | i
COc1ccc(C(=O)NCc2ccoc2C(=O)O)cc1 | i
Cc1ccc(S(=O)(=O)N(CC(=O)Nc2ccc(CC#N)cc2)c2ccccc2F)cc1 | i
C=C1C2(C(=O)NCCc3ccccc3)CCC(C2)C1(C)C (centres undefined) | 41%
CCc1ccc(/C=C/c2[nH]c(=O)[nH]c(=O)c2[N+](=O)[O-])cc1 | i
Cc1cc(Br)ccc1OCc1nc(-c2cccc([N+](=O)[O-])c2)no1 | 4%
CCOc1ccccc1C1CC(=O)NC(SCC(=O)Nc2ccc(I)cc2)=C1C#N (centres undefined) | 48%
COc1ccc2nc(Nc3nc(CSc4ccc(C)cc4)cc(=O)[nH]3)nc(C)c2c1 | i
O=C(CCC1CCCC1)N1CCN(c2ccccc2)CC1 | i
CC(C)C(=O)Nc1cccc(NC(=O)c2cccnc2)c1 | i
O=C(CCN1C(=O)c2ccccc2C1=O)Nc1ccc(-c2nc3ccccc3o2)cc1 | 4%
CCCCOc1c(Cl)cc(C(=O)O)cc1OC | i
O=C(Oc1ccc2c(=O)c(-c3ccc(Cl)cc3Cl)coc2c1)c1cc2ccccc2oc1=O | i
CS(=O)(=O)N(CC(=O)Nc1ccccc1C(=O)NCc1ccco1)c1cc(Cl)ccc1Cl | i
O=C(CSc1ccc2ccccc2n1)Nc1ccc(Cl)cc1 | i
Cc1ccnc(NC(=O)Nc2ccccc2Cl)c1 | i
COc1cc2c(cc1OC)CN(c1ncnc3sc(C)c(C)c13)CC2 | i
Cc1cccc(C(=O)Nc2nc3cc(C)c(C)cc3s2)c1 | i
Cc1ccc(N(CC(=O)N2CCOCC2)S(C)(=O)=O)c(C)c1 | i
COc1ccc(NC(=O)/C(=C\C=C\c2ccccc2)NC(=O)c2ccccc2OC)cc1 | i
Cc1cccc(C)c1NC(=O)COc1ccc2c(C)cc(=O)oc2c1C | i
CCCOc1ccc(C(=O)Nc2sc3c(c2C#N)CCC3)cc1 | 5%
CCS(=O)(=O)Nc1ccc(Cc2ccncc2)cc1 | i
O=C(COc1ccccc1/C=C\c1[nH]c(=O)[nH]c(=O)c1[N+](=O)[O-])Nc1ccccc1 | 3%
CCn1nnnc1-c1ccc(OC)c(S(=O)(=O)Nc2ccc(C(=O)OC)cc2)c1 | i
COc1cc(NC(=O)c2ccccc2I)c(OC)cc1NC(=O)c1ccccc1 | i
COc1ccc(C(=O)Nc2ccc(N3CCCCC3)cc2)cc1Br | i
CC1=C(C(=O)OC(C)C)C(c2cccc(Br)c2)N2C(=O)CCSC2=N1 (centres undefined) | 3%
COc1ccc(C2CC(=O)C3=C(C2)Nc2ccccc2NC3c2ccc(F)cc2)cc1OC (centres undefined) | i
CCc1ccc(OC(=O)C(C)Oc2ccc(Cl)cc2Cl)cc1 (centres undefined) | 39%
COc1ccc2c3c(cccc13)C(=O)N(O)C2=O | i
CC1(C)CC(NC(=S)Nc2ccc(Cl)c(Cl)c2)CC(C)(C)N1 | i
COc1ccc(NC(=S)NC(NC(=O)c2ccccc2F)C(Cl)(Cl)Cl)cc1 (centres undefined) | 2%
Cc1cc(Br)cc(C)c1OCC(=O)NCCc1nc2ccccc2[nH]1 | 18%
CC1CCN(S(=O)(=O)c2ccc(C(=O)NC34CC5CC(CC(C5)C3)C4)cc2)CC1 | i
COc1ccc(OC)c(NC(=O)c2sc3cc(Br)ccc3c2Cl)c1 | i
COc1ccc(-c2c(C)oc3cc(OCC(=O)OC(C)C)ccc3c2=O)cc1OC | 1.4µg/mL*
O=C(COc1ccc(Br)cc1Cl)NNC(=S)Nc1ccc(F)cc1F | i
N#Cc1c(C(F)(F)F)cc(C23CC4CC(CC(C4)C2)C3)nc1SCCC(=O)O | 19%
O=C(COc1ccc(F)cc1)N1c2ccccc2CCc2ccccc21 | 1%
O=C(Nc1ccc(S(=O)(=O)c2ccc(NC(=O)c3ccccc3)cc2)cc1)c1ccccc1 | i

Remaining list, next part.
SMILES | Mtb H37Rv
Cc1cccc(-n2c(Cc3ccccc3)n[nH]c2=S)c1 | i
CCOc1ccc2c(c1)C(C)=CC(C)(C)N2C(=O)Nc1ccccc1F | i
COc1ccc(NC(=O)c2ccc(C)cc2)cc1CN1C(=O)c2ccccc2C1=O | i
Cc1ccc(N2CCN(C(=O)c3cccc(Cl)c3)CC2)cc1Cl | 1%
Cc1cc(C)c(OCCOCCN2CCNCC2)c(Br)c1 | i
COc1cc(OC)c(C(=O)NCc2ccc3c(c2)OCO3)cc1OC | i
COc1cc2c(cc1OC)CN(C(=O)c1ccc(C)cc1)CC2 | i
O=C(Cc1cccc2ccccc12)Nc1nnc(SCc2ccc(Cl)cc2)s1 | i
Cc1cc(=O)[nH]c(SCC(=O)Nc2nnc(CC(C)C)s2)n1 | i
CC1=C(C(=O)Nc2ccccc2)C(c2cccc(Br)c2)NC(=S)N1 (centres undefined) | 1%
CC(C)c1ccc(OCc2ccc(C(=O)N3CCCC3)o2)cc1 | 2%
O=C(NCc1cccnc1)Nc1ccc(F)cc1F | i

Reformatted: entries from further up.
| Molecule | Mtb H37Rv |
| --- | --- |
| O=C(Cc1cccc2ccccc12)Nc1nnc(SCc2ccc(Cl)cc2)s1 | i |
| Cc1cc(=O)[nH]c(SCC(=O)Nc2nnc(CC(C)C)s2)n1 | i |
| CC1=C(C(=O)Nc2ccccc2)C(c2cccc(Br)c2)NC(=S)N1 (centres undefined) | 1% |
| CC(C)c1ccc(OCc2ccc(C(=O)N3CCCC3)o2)cc1 | 2% |

(further entries)
SMILES | Mtb H37Rv
CC(=O)c1cc(F)c(N2CCN(C(=O)C(C)(C)C)CC2)cc1C | i
CCOC(=O)CC(N)c1ccc(OC)c(OC)c1 (centres undefined) | i
CCc1ccc(OCC(=O)Nc2ncc(C)s2)cc1 | i
O=C1CC(N2CCN(c3ccccc3Cl)CC2)C(=O)N1c1cccc(F)c1 (centres undefined) | i
Cc1c(N(CC(=O)NC2CCCCC2)S(=O)(=O)c2ccccc2)c(=O)n(-c2ccccc2)n1C | i

Structures from the list above that have four or more nitrogen atoms (14):
SMILES | Mtb H37Rv
O=C(O)CCSc1n[nH]c2nc3ccccc3n12 | i
Cc1c(Cl)c([N+](=O)[O-])nn1CC(=O)Nc1ccccc1C(F)(F)F | i
Cc1nc(N)sc1-c1csc(Nc2ccccn2)n1 | i
Cc1c(C(Nc2ccccn2)c2ccc(Cl)cc2)c(=O)n(-c2ccccc2)n1C (centres undefined) | i
COc1ccccc1C(=O)n1nc(-c2ccccc2)nc1N | i
Nc1nonc1-c1nnnn1CC(=O)Nc1cccc2ccccc12 | i
CCOc1ccc(Nc2nc(N)nc(CN3CCCCCC3)n2)cc1 | i
Cc1onc(-c2ccccc2Cl)c1C(=O)NC(=S)Nc1c(C)n(C)n(-c2ccccc2)c1=O | i
Cc1cc(C(F)F)n2ncc(C(=O)Nc3cnn(Cc4ccc(Cl)cc4Cl)c3)c2n1 | 1%
COc1ccc2nc(Nc3nc(CSc4ccc(C)cc4)cc(=O)[nH]3)nc(C)c2c1 | i
O=C(COc1ccccc1/C=C\c1[nH]c(=O)[nH]c(=O)c1[N+](=O)[O-])Nc1ccccc1 | 3%
CCn1nnnc1-c1ccc(OC)c(S(=O)(=O)Nc2ccc(C(=O)OC)cc2)c1 | i
Cc1cc(=O)[nH]c(SCC(=O)Nc2nnc(CC(C)C)s2)n1 | i
Cc1c(N(CC(=O)NC2CCCCC2)S(=O)(=O)c2ccccc2)c(=O)n(-c2ccccc2)n1C | i
